Bioassay records deposited in PubChem BioAssay by National Center for Advancing Translational Sciences (NCATS).
Cruzain noTriton = blocks cruzain activity in detergent-free assay; P25779; Potency, µM, without a hit: max response, negative = inhibition, actives largely listed as inhibitors; 200,000 compounds, 2.3% hits; purified cruzain, Z-FR-AMC fluorescence, no detergent; AID 1476;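 note: plate controls were enzyme without inhibitor for no effect and buffer without enzyme for full effect; nearly all actives have a fitted effect of over 40% in size; top concentration of the series not given in the record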
Target sequence (P25779 123-467 limits assumed): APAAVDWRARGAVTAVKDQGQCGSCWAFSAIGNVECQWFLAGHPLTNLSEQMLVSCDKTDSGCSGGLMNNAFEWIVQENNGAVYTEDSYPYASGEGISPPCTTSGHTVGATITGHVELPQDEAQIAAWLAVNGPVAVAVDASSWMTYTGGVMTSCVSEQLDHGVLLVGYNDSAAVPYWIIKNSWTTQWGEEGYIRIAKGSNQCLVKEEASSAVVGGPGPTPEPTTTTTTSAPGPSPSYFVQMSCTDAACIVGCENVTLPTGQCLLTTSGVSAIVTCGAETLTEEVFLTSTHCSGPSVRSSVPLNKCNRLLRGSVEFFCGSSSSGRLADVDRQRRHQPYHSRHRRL
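Purified cruzain at 1.5 nM, pre-incubated 15 min with compound at room temperature in 100 mM sodium acetate pH 5.5, 5 mM DTT, 0.00005% Triton X-100. Reaction started with 2 uM Z-FR-AMC; AMC fluorescence increase over 60 s gives rate.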
Cruzain inh Det = inhibitors of Trypanosoma cruzi cruzain with detergent; AID 1478; P25779; 200,000 compounds, 0.43% hits; Potency, µM, without a hit: max response, negative = inhibition, most hits filed as inhibitors; purified cruzain, Z-FR-AMC fluorescence, 0.01% Triton;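 note: plate controls were neutral wells for no effect and buffer without enzyme for full effect; nearly all actives have a fitted effect of over 40% in size; top concentration of the series not given in the record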
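Steps: dispense cruzain (1.5 nM final) in acetate buffer pH 5.5 with DTT and 0.01% Triton X-100; pin-transfer compounds; incubate 15 min RT; add Z-FR-AMC (2 uM final); read fluorescence every 30 s, using the 60 s intensity change.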
2A StopGo = lowers the luciferase signal of an FMDV 2A StopGo reporter. 410,000 compounds, 1.2% hits. Potency, µM (titrated, usually from 57.9 µM), inactives show top-dose signal change, negative = less light. AID 1159524. human cells with a luciferase reporter of 2A StopGo recoding; control for the full effect not named in the record; active = well fitted falling curve with a large enough effect; inconclusive = small, poorly fitted or top-dose-only effect; inactive = no such curve, though single readings can be large or run the other way; tested in HEK293T cells; note: nearly all actives have a fitted effect of over 45% in size; luciferase light after 4 h
Starred values were filed as active, the others as inactive; ? = inconclusive; & = joins results of further samples; [ ] = another dose, or the depositor's remark. Unless noted, calls come from the whole dose curve; as a rule, active = well fitted curve in the direction sought with a large enough effect; inconclusive = small, poorly fitted or top-dose-only effect, or another doubt; inactive = no such curve, though single readings can be large; an effect the other way counts as inactive or inconclusive. Unless noted, % is set by controls: 0 for no effect and ±100 for the full control effect; potency is the fitted concentration of half-maximal effect.

SMILES	Cruzain noTriton	Cruzain inh Det	2A StopGo
COc1cccc(-c2nc(NCCc3c[nH]c4ccc(OC)cc34)c3ccccc3n2)c1	?	-8.2%	-7%
Cc1cnc(CNc2cc(-c3c(C)noc3C)ncn2)cn1	0%	0.2%	3%
COC(=O)C1OC(=O)C2OC23[C@]2(C)C(OC(C)=O)CC4C(C)(C)C(=O)CC[C@]4(C)C2CC[C@@]13C (stereo partly drawn)	?	2.6%	5%
COCCn1c(=O)c(-c2ccc(OC)cc2)nc2cnc(N3CCN(C)CC3)nc21	-8%	-2.2%	1%
COc1ncc2nc(-c3ccc(F)cc3)c(=O)n(C3CC3)c2n1	5%	1.4%	0%
Cc1cnc(CNc2ncncc2-c2ccccc2CN(C)C)cn1	9%	-0.3%	0%
COC(=O)CC1C(C)(C)C(=O)C2CC3C4=CC(=O)OC(c5ccoc5)[C@]4(C)CCC3[C@@]1(C)C2=O (stereo partly drawn)	-7%	-1.0%	-12%
CN(C)C(=O)c1ccc(-c2nccc(-n3ccnc3)n2)cc1	-2%	4.5%	1%
CN(C)c1ncc2nc(-c3ccc(F)cc3)c(=O)n(-c3ccccc3)c2n1	12%	2.2%	1%
O=C(Oc1ccccc1)N1CCC2(CCCN(c3ccccc3)C2)CC1	-14%	-4.0%	-23%
COc1cccc(Cn2c(=O)c(-c3cccc(Cl)c3)nc3cncnc32)c1	4%	-6.3%	-20%
CS(=O)(=O)Nc1cccc(-c2nc(Nc3ccc(F)cc3)c3ccccc3n2)c1	-20%	-9.7%	?
C=C[C@](C)(O)CCC1C(=C)CCC2[C@@](C)(CO)CCC[C@@]12C (stereo partly drawn)	0%	-2.6%	?
CCNc1ncc2nc(-c3ccccc3)c(=O)n(Cc3cccs3)c2n1	-1%	3.9%	-2%
Cn1c(=O)c(-c2cc(F)cc(F)c2)nc2cnc(Oc3ccccc3)nc21	0%	-9.3%	7%
COc1ccc(-c2nc3cnc(Nc4cccc(OC)c4)nc3n(C3CC3)c2=O)cc1	-7%	2.7%	8%
O=C(c1csnn1)N1CCC2(CC1)CN(c1ccccn1)C2	1%	-7.2%	-11%
CCC[C@@H]1CC2=CC(=O)CC[C@]2(C)[C@@H]2CC[C@@]3(C)[C@H](CC[C@]3(O)CCC(=O)O)[C@H]12	19%	-0.5%	-3%
CC1(C)C(=O)C=C[C@@]2(C)C1CC(O)[C@]1(C)C2CC[C@@]2(C)C(c3ccoc3)OC(=O)C3O[C@]312 (stereo partly drawn)	21%	-0.8%	?
O=C(NCCN1CCCCC1)c1ccc(I)cc1	3%	-3.6%	35%&13%[activator]
CCCCCCCCCCCCCc1ccco1	-1%	0.3%	-17%
CC(C)NC(=O)N1CCCC2(CCN(C(=O)c3csnn3)CC2)C1	3%	-1.0%	2%
CC(C)CN1CCC2(CC1)CCN(C(=O)c1cccc(F)c1)CC2	-8%	1.2%	-8%
O=c1c(-c2cccc(Cl)c2)nc2cncnc2n1Cc1ccccc1Cl	-11%	3.2%	-6%
C=C1C(N)CC2CC1C2(C)C (stereo not drawn)	0%	0.4%	-2%

The final four entries of the section before come first, to join the parts:
SMILES	Cruzain noTriton	Cruzain inh Det	2A StopGo
CC(C)NC(=O)N1CCCC2(CCN(C(=O)c3csnn3)CC2)C1	3%	-1.0%	2%
CC(C)CN1CCC2(CC1)CCN(C(=O)c1cccc(F)c1)CC2	-8%	1.2%	-8%
O=c1c(-c2cccc(Cl)c2)nc2cncnc2n1Cc1ccccc1Cl	-11%	3.2%	-6%
C=C1C(N)CC2CC1C2(C)C (stereo not drawn)	0%	0.4%	-2%
CN(CC[C@@H](Oc1ccc(-c2ccccc2)cc1)c1ccc(F)cc1)CC(=O)O	?	-1.7%	-25%
COc1ccc(NC(=O)N2CCCC3(CCN(C(=O)c4cccc(F)c4)CC3)C2)cc1	9%	1.2%	-11%
N[C@@H](C(=O)O)c1ccc(C(=O)O)c(O)c1	14%	-3.1%	2%
CN(C)C(=O)c1ccc(-c2nc(N(C)C)c3ccccc3n2)cc1	-9%	-12%	57%[activator]
C=C(C)C(=O)OC[C@@H]1CCC[N@+]2(C)CCCCC12 (stereo partly drawn)	-11%	3.7%	-10%
COCCn1c(=O)c(-c2ccc(OC)cc2)nc2cnc(OC)nc21	16%	-10%	-11%
COCCn1c(=O)c(-c2ccccc2)nc2cnc(Oc3ccccc3)nc21	13%	-3.3%	4%
O=c1c(-c2ccc(Cl)cc2)nc2cnc(Oc3ccccc3)nc2n1C1CC1	8%	-2.0%	0%
O=c1c(-c2ccccc2)nc2cnc(N3CCOCC3)nc2n1Cc1ccc(F)cc1	2%	2.6%	-19%
COc1ccccc1-c1nc(N2CCN(C)CC2)c2ccccc2n1	-3%	3.1%	-8%
Cc1ccccc1-c1cc(NCCN2CCOCC2)ncn1	17%	2.5%	16%
CS(=O)(=O)N1CCC[C@@]2(CCN(c3ccccn3)C2)C1	-3%	0.5%	-13%
COc1ccc(Oc2ncc3nc(-c4ccc(OC)cc4)c(=O)n(CCC#N)c3n2)cc1	9%	-0.3%	-8%
O=S(=O)(c1ccccc1)N1CCC[C@@]2(CCN(c3ncccn3)C2)C1	1%	-0.1%	-12%
CN1CCN(c2ncc3nc(-c4cccc(C#N)c4)c(=O)n(C[C@H]4CCCO4)c3n2)CC1	?	?	-24%
O=C(/C=C/c1ccc(O)c(O)c1)O[C@H]1C[C@@](O)(C(=O)O)CC(O)C1O (stereo partly drawn)	-5%	2.9%	-3%
COc1cccc(Cn2c(=O)c(-c3ccc(F)cc3)nc3cnc(N4CCOCC4)nc32)c1	-7%	2.2%	8%
COc1cccc(-c2cc(NCc3cnc(C)cn3)ncn2)c1	-13%	-3.9%	36%[activator]
CC[C@]1(O)CC(O[C@@H]2CC(N(C)C)C(O)C(C)O2)c2c(cc3c(c2O)C(=O)c2c(O)cccc2C3=O)C1C(=O)OC (stereo partly drawn)	7%	-4.5%	-1%
COCCn1c(=O)c(CCc2ccccc2)nc2cnc(OC)nc21	-3%	-2.0%	-11%
Nc1nc2[nH]c(=O)[nH]c2c(=O)[nH]1	-5%	2.5%	9%
N#CCCn1c(=O)c(-c2cccs2)nc2cnc(Nc3ccccc3)nc21	2%	3.5%	-9%
COc1cccc(Cn2c(=O)c(-c3ccccc3)nc3cnc(N(C)C)nc32)c1	11%	-1.6%	-16%
COCC(=O)N1CCC2(CCCN(c3ncccn3)C2)CC1	3%	1.5%	-5%
COCCn1c(=O)c(-c2cn(C)c3ccccc23)nc2cnc(OCc3ccccc3)nc21	5%	-3.8%	-6%

Compounds shown so far that have a cyano group (three):
SMILES	Cruzain noTriton	Cruzain inh Det	2A StopGo
COc1ccc(Oc2ncc3nc(-c4ccc(OC)cc4)c(=O)n(CCC#N)c3n2)cc1	9%	-0.3%	-8%
CN1CCN(c2ncc3nc(-c4cccc(C#N)c4)c(=O)n(C[C@H]4CCCO4)c3n2)CC1	?	?	-24%
N#CCCn1c(=O)c(-c2cccs2)nc2cnc(Nc3ccccc3)nc21	2%	3.5%	-9%

Next part
SMILES	Cruzain noTriton	Cruzain inh Det	2A StopGo
CCCCCCCCCCCCCCCC(=O)OCC(COP(=O)(O)O)OC(=O)CCCCCCCCCCCCCCC (stereo not drawn)	-13%	1.7%	-13%[6.7 µM]
CNc1ncnc2c1ncn2[C@H]1C[C@H](OP(=O)(O)O)[C@H](COP(=O)(O)O)O1	2%	1.2%	2%
Cc1noc(C)c1C(=O)N1CCC2(CCN(Cc3cc(C(F)(F)F)cc(C(F)(F)F)c3)CC2)CC1	3%	1.5%	3%
CC(C)=CCC/C(C)=C/CC/C(C)=C/CC/C(C)=C/CC/C(C)=C/CC/C(C)=C/CC/C(C)=C/CC/C(C)=C/CC/C(C)=C/CO	-10%	4.8%	2%
c1nc(N2CCNCC2)c2cc(-c3ccoc3)ccc2n1	-7%	-4.2%	-12%
COCC(=O)N1CCC2(CCN(Cc3nccs3)CC2)CC1	0%	-1.3%	-18%
CN(C)c1ncc2nc(CCc3ccccc3)c(=O)n(C[C@H]3CCCO3)c2n1	?	-9.2%	11%
O=C(Oc1ccccc1)N1CCC2(CC1)CCN(c1ncccn1)CC2	11%	0.0%	?
FC(F)(F)c1ccccc1-c1nc(NCc2cccs2)c2ccccc2n1	12%	-5.4%	-8%
COc1ccc(-c2nc3cnc(Oc4cccc(Cl)c4)nc3n(C[C@H]3CCCO3)c2=O)cc1	19%	3.5%	-9%
CCC(=O)OC1CCC2C3CCc4cc(O)ccc4C3CC[C@]12C (stereo partly drawn)	-1%	-8.8%	2%
COc1ccc(C(=O)c2ccccc2)c(O)c1O	-3%	-3.8%	-2%
O=c1c(-c2cccs2)nc2cncnc2n1Cc1ccccc1	11%	3.8%	4%
C/C=C/c1ccc2oc(-c3ccc(O)cc3)c(C)c2c1	9%	-4.8%	29%
Cc1nc2cnc(N3CCNCC3)nc2n(C)c1=O	-21%	-17%	-11%
CC(C)c1c(O)ccc2c1CCC1C(C)(C)CCC[C@@]21C (stereo partly drawn)	-2%	0.6%	-11%
C=C(C)C1Cc2c(ccc3c(=O)c4c(oc23)COc2cc(OC)c(OC)cc2-4)O1 (stereo not drawn)	-11%&-3%	-1.2%&4.7%	-6%&25%
CN(C)C(=O)c1ccc(-c2cc(NCc3cccs3)ncn2)cc1	13%	9.4%	9%
COc1cccc(Cn2c(=O)cnc3cnc(Nc4ccccc4)nc32)c1	?	-5.6%	?
COc1ccc2c(=O)c(CC(=O)O)coc2c1	1%	0.4%	-22%
CC(=O)N1CCC2(CC1)CN(c1cccc(-c3ccccc3)c1)C2	?	-4.8%	4%
CN1CCc2cc3c(cc2C1C1OC(=O)c2c1ccc1c2OCO1)OCO3 (stereo not drawn)	-3%	-2.1%	2%
CCCCCCCCCc1ccc(O)cc1	-1%&13%	-6.6%&9.4%	-5%
O=C(c1cnccn1)N1CCC[C@@]2(CCN(c3cccc(-c4ccccc4)c3)C2)C1	?	-3.1%	0%
Cc1cc([C@](C)(N)C(=O)O)ccc1P(=O)(O)O	4%	4.9%	-5%

Further compounds:
SMILES	Cruzain noTriton	Cruzain inh Det	2A StopGo
COc1cccc(Cn2c(=O)c(-c3ccc(Cl)cc3)nc3cnc(N4CCN(C)CC4)nc32)c1	9%	1.9%	-12%
COC(=O)N1CCC2(CCCN(Cc3ccccc3OC)C2)CC1	-10%	-0.6%	-4%
Cn1cccc1C(=O)N1CCC2(CC1)CCN(c1ccccc1)CC2	14%	0.9%	-21%
COc1ccccc1CN1CC2(CCN(C(=O)c3ccncc3)CC2)C1	-6%	1.9%	-18%
N#CCCn1c(=O)cnc2cnc(N3CCNCC3)nc21	-15%	-17%	-9%
CNCc1ccccc1	3%	5.5%	14%
CN1CCc2cc(Cl)c(O)cc2[C@H]2c3ccccc3CC[C@@H]21	-2%	0.1%	0%
CN(C)c1ncc2nc(CCc3ccccc3)c(=O)n(CCc3ccccc3)c2n1	-6%	0.7%	-2%
C[C@@H](NCc1cc(Br)cc2[nH]c(=O)c(=O)[nH]c12)P(=O)(O)O	-2%	0.7%	0%
C1CCN2C[C@H]3C[C@H](CN4CCCCC34)C2C1 (stereo partly drawn)	14%&-8%	0.3%&1.4%	-3%&-17%
Cc1ccccc1-c1cncnc1N(C)Cc1ccco1	3%	-0.2%	-1%
COc1ccccc1CNc1cc(-c2ccc(C(=O)N(C)C)cc2)ncn1	9%	-3.5%	6%
c1csc(CN2CC[C@@]3(CCCNC3)C2)n1	-2%	2.6%	-10%
CN(C)c1nc(-c2ccccc2C(F)(F)F)nc2ccccc12	7%	-0.7%	-9%
CCCCC/C=C/C=C1/C(=O)C=C[C@@H]1C/C=C\CCCC(=O)O	?	1.8%&5.7%	-17%[6.7 µM]
FC(F)(F)c1cc(CN2CCC3(CCNCC3)CC2)cc(C(F)(F)F)c1	0%	-0.3%	-3%
CCOC(=O)C1CSC(Cc2ccc(OCc3ccc([N+](=O)[O-])cc3)cc2)N1 (stereo not drawn)	-21%	-7.8%	26%
COc1ccc(-c2nc3cnc(N4CCN(C)CC4)nc3n(Cc3cccs3)c2=O)cc1	1%	-3.3%	5%
Cc1cc(=O)oc2cc(O)c(O)cc12	?	0.0%	34%[activator]
Cc1cnc(CNc2ncncc2-c2cccnc2)cn1	9%	0.3%	-9%
c1cncc(-c2nc(-n3ccnc3)c3ccccc3n2)c1	1%	3.7%	-7%
CNc1cc(-c2ccccc2C(F)(F)F)ncn1	15%	0.4%	3%
Cc1ccccc1-c1cc(Nc2ccccc2)ncn1	-3%	0.2%	8%
CCNc1ncc2ncc(=O)n(Cc3cccc(OC)c3)c2n1	-17%	-8.4%	-20%

These rows are one share of the data; the hit share may differ from the screen's.
